# D2 potentiator: Beta-Arrestin HTS for Positive Allosteric Modulators of the Human D2 Dopamine Receptor: Potentiators; D(2) dopamine receptor (Homo sapiens), P14416; AID 624464, 2012; potentiation, % (no concentration beside the values); DiscoveRx D2 beta-arrestin cells, luminescence, 90 min; 100% = 57 uM dopamine signal; 360,000 compounds, 0.23% hits; active = potentiation of 50% or more; inconclusive = 30% to 50%; inactive = 30% or less;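 note: compound concentration not given in the record; tested on top of an EC20 dose of dopamine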
# Target sequence (P14416 whole entry, looked up): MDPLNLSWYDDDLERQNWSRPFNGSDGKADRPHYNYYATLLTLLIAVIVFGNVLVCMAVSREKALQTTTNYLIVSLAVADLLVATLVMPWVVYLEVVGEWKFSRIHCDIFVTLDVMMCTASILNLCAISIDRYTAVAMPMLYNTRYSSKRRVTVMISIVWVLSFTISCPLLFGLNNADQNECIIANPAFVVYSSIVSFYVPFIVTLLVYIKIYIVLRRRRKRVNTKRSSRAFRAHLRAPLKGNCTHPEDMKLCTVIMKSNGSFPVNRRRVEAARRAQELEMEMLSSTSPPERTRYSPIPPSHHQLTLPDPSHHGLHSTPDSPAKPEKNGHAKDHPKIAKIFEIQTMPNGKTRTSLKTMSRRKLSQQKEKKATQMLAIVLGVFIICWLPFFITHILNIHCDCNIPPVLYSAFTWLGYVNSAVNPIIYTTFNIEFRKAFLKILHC
#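 D2 cells co-treated with compound plus 50 nM dopamine (EC20) for 90 min at 37 deg C to detect potentiation. Beta-arrestin recruitment was read as enzyme-fragment luminescence after 1 h at ambient temperature. Full response was set by 57 uM dopamine.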
# TRPV1 potentiator: HTS Assay for Compounds that Act as Potentiators of the Vanilloid Receptor 1; potentiation, % at 8.33 µM; 320,000 compounds, 0.02% hits; TRPV1-expressing cells, Fluo-8 calcium influx, capsaicin EC20 potentiation; host cell line not named in the record; control for the full effect not named in the record; Transient receptor potential cation channel subfamily V member 1 (Homo sapiens), Q8NER1; AID 540277, 2011; active means potentiation above 80%; inconclusive means 30% to 80%; inactive means below 30%; note: 0% is about no effect
#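 Fluo-8 calcium influx in TRPV1-expressing cells, kinetic read (ex 480/em 520 nm). Compound added and read 3 min for agonist activity, followed by capsaicin at EC20 final and 2 min further read for enhancement.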
# Sfp PPTase inh: qHTS Assay for Inhibitors of Bacillus subtilis Sfp phosphopantetheinyl transferase (PPTase). 4'-phosphopantetheinyl transferase ffp (Bacillus subtilis), Q9F4F7. Biochemical Sfp PPTase activity, qHTS. Potency, µM, without a hit: max response, negative = inhibition, most hits filed as inhibitors. 310,000 compounds, 3.5% hits; active = well fitted inhibition curve with a large enough effect; inconclusive = small, poorly fitted or top-dose-only effect, or another doubt; inactive = no such curve, though single readings can be large or run the other way;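 note: the enzyme is Sfp with the accession as filed and its product quenches rhodamine fluorescence; potency is the fitted concentration of half-maximal effect; 0% = enzyme reaction without inhibitor and -100% = no enzyme wells; top concentration of the series not given in the record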
#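 Buffer: 50 mM Hepes-Na pH 7.6, 10 mM MgCl2, 0.01% Nonidet P-40, 0.01% BSA. Enzyme 15 nM, pre-exposed to compound 15 min; substrates then added and fluorescence change tracked over 30 min.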
# ClpP mod: qHTS Assay for Activators of ClpP | ATP-dependent Clp protease proteolytic subunit (Bacillus subtilis (strain 168)), P80244 | Potency, µM (series often up to 57.5 µM), for inactives: top-dose activity change, negative = active | purified B. subtilis ClpP, FRET peptide cleavage, 20 min | 340,000 compounds, 1.9% hits; active = well fitted falling curve with a large enough effect; inconclusive = small, poorly fitted or top-dose-only effect; inactive = no such curve, though single readings can be large or run the other way; note: potency is the fitted concentration of half-maximal effect; the source files actives as falling curves though it sought activators and does not explain the sign; nearly all actives have a fitted effect of over 65% in size; many hits overshoot -100%
# Target sequence (P80244 whole entry, looked up): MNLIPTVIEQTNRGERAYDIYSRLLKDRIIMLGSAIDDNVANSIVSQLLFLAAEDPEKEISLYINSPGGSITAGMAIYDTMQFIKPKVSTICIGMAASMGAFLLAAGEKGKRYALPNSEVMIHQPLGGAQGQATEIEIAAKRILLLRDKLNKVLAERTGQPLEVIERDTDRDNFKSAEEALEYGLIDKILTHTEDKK
#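 Purified B. subtilis ClpP, 10 microg/mL final in Tris/HCl pH8 with KCl, BSA, glycerol and Tween-20, cleaved an Abz/nitrotyrosine-quenched decapeptide. Fluorescence (ex 320, em 430) was read at 0 and 20 min at room temperature. Delta was normalized to 5.8 microM ADEP and DMSO/no-enzyme controls.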
# gsp ag: qHTS for Agonist of gsp, the Etiologic Mutation Responsible for Fibrous Dysplasia/McCune-Albright Syndrome: qHTS. gsp mutant cells, cAMP HTRF, 30 min; control for the full effect not named in the record. 340,000 compounds, 0.13% hits. Potency, µM (highest dose often 76.9 µM), inactives show at the top dose activation (cAMP increase), hits mostly activators. AID 624287, 2012; active = well fitted activation curve with a large enough effect; inconclusive = small, poorly fitted or top-dose-only effect, or another doubt; inactive = no such curve, though single readings can be large or run the other way; cell line not stated here;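 note: phosphodiesterase inhibitor Ro 20-1724 added with compounds to block cAMP breakdown; potency is the fitted concentration of half-maximal effect; nearly all actives have a fitted effect of over 60% in size; about a fifth of the inactives were tested at one dose only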
#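 Cells in DMEM/10% FBS with G418 were pretreated with compounds in DMSO plus […] (300 uM stock) for 30 min at 37C. cAMP was measured by HTRF (cAMP-d2 plus anti-cAMP antibody-K) after 30 min at room temperature.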
# gsp antagonist: qHTS for Antagonists of gsp, the Etiologic Mutation Responsible for Fibrous Dysplasia/McCune-Albright Syndrome: qHTS; 340,000 compounds, 0.4% hits; Potency, µM (top dose mostly 76.9 µM), for inactives: top-dose activity change, negative = inhibition, hits mostly inhibitors; gsp-mutant cells, cAMP HTRF, 30 min; control for the full effect not named in the record; AID 624288, 2012; active = falling curve of any shape with a large fitted effect; inconclusive = falling curve, mostly with a smaller effect; inactive = flat or rising curve; cell line not stated here;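 note: intracellular cAMP measured with PDE inhibitor Ro 20-1724 present during compound exposure; potency is the fitted concentration of half-maximal effect; % is set by controls: 0 for no effect and ±100 for the full control effect; nearly all actives have a fitted effect of over 65% in size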
#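 G418-selected cells were plated in DMEM/10% FBS for 16-24 h at 37C, then treated with compounds plus the PDE inhibitor […] (300 uM solution added) for 30 min at 37C. Intracellular cAMP was measured by HTRF after 30 min lysis at room temperature.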
# Menin MLL FP FL: qHTS Assay for Inhibitors Targeting the Menin-MLL Interaction in MLL Related Leukemias: Competition With Fluorescein Labeled MLL-derived Peptide; Fluorescence polarization, fluorescein-MLL peptide displacement from menin; FP activity change, % at 61.4 µM; 290,000 tested, under 10 active; inconclusive = falling polarisation curve, or a change in total fluorescence; inactive = total fluorescence flat and polarisation flat or rising; no compound was filed as active; the % refers to the polarisation; negative = inhibition;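 note: % of control where 0% means no effect; inhibitors lower the polarisation; unlabelled MLL peptide was the positive control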
# The depositor's hits bear a star; ? = inconclusive; nt = no result given; & = joins results of further samples; [ ] = remark or other dose.
cpd	Compound	Menin MLL FP FL	D2 potentiator	TRPV1 potentiator	gsp ag	gsp antagonist	Sfp PPTase inh	ClpP mod
1	COc1ccc(OC)c(NC(=O)CCN2CCN(c3ccccc3)CC2)c1	1.3	6	10	7%	-8%	5%	-1.7%
2	CC(OC(=O)CCc1nc2ccccc2[nH]c1=O)C(=O)c1ccccc1 (stereo not given)	0.1	-9	?	0%	-15%	9%	-25%
3	CCOc1ccc(NC(=O)NNC(=O)COc2ccc3ccccc3c2)cc1	-2.5	-7	3	8%	16%	-4%	-1.7%
4	CC(NS(=O)(=O)/C=C/c1ccccc1)c1ccccc1 (stereo not given)	-4.2	1	6	-4%	4%	17%	nt
5	CC1=NN(c2ccccc2)C(=O)/C1=C/c1cc(C)n(C2CC2)c1C	-4.3	-5	14	24%[15.4 µM]	5%	19%	nt
6	COC(=O)c1c(NC(=O)COC(=O)CCS(=O)(=O)c2ccc(C)cc2)sc(C)c1C	2.6	-1	10	?	-1%	3%	-3.7%
7	CCOc1ccc(S(=O)(=O)n2cc(-c3ccccc3)c(N)n2)cc1	3.7	1	17	-44%	16%	3%	1.0%
8	O=C(CCl)N1N=C(c2cccs2)CC1c1ccco1 (stereo not given)	8.9	-14	-2	3%[15.4 µM]	-13%	0%	-1.6%
9	Cc1ccc(NC(=O)CN2C(=O)NC(C)(C3CC3)C2=O)c([N+](=O)[O-])c1 (stereo not given)	nt	1	2	4%	-16%	nt	1.2%
10	O=C(Nc1ccccc1)C1CCN(C(=O)c2ccc([N+](=O)[O-])cc2)CC1	1.7	-2	24	2%[15.4 µM]	0%	-8%	nt
11	CN(C)S(=O)(=O)c1ccc(NC(=O)COC(=O)C2CC3CCCC(C2)C3=O)cc1 (stereo not given)	-3.5	-10	9	15%	1%	-5%	3.2%
12	C=CCNC(=O)COC(=O)CNC(=O)c1cc(Cl)cc([N+](=O)[O-])c1	-2.5	-1	-5	1%	6%	7%	-0.6%
13	COc1ccc(Cc2noc(CN3CCCN(C4Cc5ccccc5C4)CC3)n2)cc1OC	-6.9	-11	-24	-43%[inhibitor]	8%	0%	nt
14	CCCCCC1CC(CC(=O)NC(=S)Nc2ccc([N+](=O)[O-])cc2)C(=O)O1 (stereo not given)	-0.6	-18	-2	2%	-3%	0%	-0.1%
15	Cc1snc(S(=O)(=O)/C(C#N)=N\Nc2ccccc2)c1C#N	2.1	-23	10	-8%	30%	6%	-11%
16	CC(C)n1c(CNC(=O)c2ccccc2)nc2ccccc21	-1.3	-26	2	-2%	-8%	7%	-0.1%
17	NC(=O)C1CCN(c2cc(Cl)ccc2[N+](=O)[O-])CC1	2.9	8	-1	-7%[15.4 µM]	-1%	-5%	1.3%
18	Cc1ccc(S(=O)(=O)N(Cc2ccccc2)c2ccccc2C(=O)NCc2ccco2)cc1	0.9	-6	-26	14%	-6%	-11%	-0.9%
19	COc1ccc(Cn2c(CCC(=O)Nc3ccc(C)c(C)c3)nc3cccnc32)cc1	0.0	-9	-18	-5%	0%	-14%	0.4%&-0.3%
20	CCOC(=O)c1c(-c2cccc(C)c2)csc1NC(=O)C1CC=CCC1C(=O)O (stereo not given)	-0.9	0	4	-36%	-11%	-20%	-4.7%
21	Cc1ccc(N(CC(=O)NC(C)C)C(=O)CCC(=O)Nc2ccccn2)cc1	-0.9	-3	18	-6%[15.4 µM]	-1%	9%	0.7%
22	Cc1ccc2nc(C)cc(C(=O)Nc3nccs3)c2c1	0.1	-5	2	0%	9%	13%	0.4%
23	O=C(CN1C(=O)NC(c2ccccc2)(c2ccccc2)C1=O)NCCNCCO	2.1	1	8	-7%	8%	23%	nt
24	N#Cc1ccc(CSc2ncccn2)cc1	0.2	0	-2	-2%	-2%	11%	0.5%
25	O=C1CSc2ccc(C(=O)NCCc3ccc(Cl)cc3Cl)cc2N1	nt	-15	nt	-24%	-14%	nt	-14%
26	N#Cc1ccc(-c2csc(NC(=O)c3ccc(N4C(=O)CCC4=O)cc3)n2)cc1	-1.6	1	7	-10%[15.4 µM]	5%	11%	nt
27	O=C(NCCCn1ccnc1)C(=O)c1cn(CC(=O)N2CCCCCC2)c2ccccc12	-24	-4	?	-10%[15.4 µM]	1%	11%	nt
28	O=C(NCC(c1ccco1)N1CCCC1)c1cc(S(=O)(=O)N2CCOCC2)ccc1Cl (stereo not given)	nt	10	-1	21%	7%	nt	-0.2%
29	O=C(NCc1ccco1)/C(=C/c1ccc(C(F)(F)F)cc1)c1nc2ccccc2[nH]1	?	-7	-12	20%	-1%	?	-24%
30	COc1cc(C)nc(SCC(N)=O)n1	-0.6	16	-25	10%	0%	1%	-0.3%
31	COC(=O)c1cc(N2C(=O)C3C4C=CC(CC4)C3C2=O)ccc1Cl (stereo not given)	-1.5	-2	-3	-11%	4%	17%	nt
32	Cc1ccc(N2C(=O)CC(N3CCSCC3)C2=O)c(C)c1 (stereo not given)	-0.1	-4	0	-1%	11%	14%	0.2%
33	CCC/C(=N\NC(=O)c1cccc(C)c1)c1ccccc1	6.7	-7	-7	0%	-8%	12%	1.0%
34	Cc1cc(N2CCOCC2)n2ncc(-c3ccccc3)c2n1	1.9	-4	5	?	-14%	-1%	0.5%
35	COc1ccc2[nH]c3c(c2c1)CCN1C(=O)C(CC(=O)NCc2ccco2)C[C@H](C(=O)N(C(C)C)C(C)C)[C@@]31C (stereo not given in full)	nt	-7	nt	nt	-12%	nt	-4.7%
36	C=C(C)CSc1nc(N)c(C#N)c(-c2ccc(C)cc2)c1C#N	2.5	3	-6	-1%	-6%	-27%	-13%
37	CCN(CC)CCCN1C(=O)C(O)=C(C(=O)c2ccc(C)o2)C1c1ccc(C)o1 (stereo not given)	2.2	-15	1	23%	12%	-9%	-4.7%
38	O=C(CCc1ccc(O)c(O)c1)N/N=C/c1cc2c(cc1[N+](=O)[O-])OCO2	-3.1	2	-1	10%	-19%	40µM*	-0.7%
39	O=C(c1cc(COc2ccc(F)cc2Cl)on1)N1CCc2sccc2C1	nt	-11	-7	0%	-13%	1%	-1.1%
40	CC(C)(C)NC(=O)CN(C(=O)c1ccc(CN2CCOCC2)o1)c1ccc2c(c1)OCCO2	0.8	1	2	-35%	9%	-8%	13µM*
41	COc1ccc(C(=O)NC2=Nc3ccccc3N=C(C)C2c2ccccc2)cc1 (stereo not given)	1.7	-6	-17	15%[15.4 µM]	?	13%	nt
42	COc1ccc(-n2nnnc2SCc2nc3ccccc3s2)cc1	0.6	-10	-15	-18%	6%	-3%	-5.5%
43	Oc1c(Cl)cc(Cl)cc1/C=N/Nc1ncc(Br)cn1	-0.6	-6	0	8%	6%	5%	nt
44	Cc1cccc(N2CCN(C(=O)n3ccnc3)CC2)c1C	-6.5	6	-16	30%	0%	19%	1.8%
45	COC(=O)c1ccccc1NC(=O)Cc1nc(-c2ccccc2)sc1-c1ccc(C)cc1	4.0	0	-2	-12%	13%	-17%	-16%
46	CC(C)(CNC(=O)c1cc(Cl)c(O)c(Cl)c1)N1CCCCC1	0.1	16	7	12%[15.4 µM]	-9%	12%	-11%
47	C=CCOc1c(CNc2ncn[nH]2)cccc1OC	1.6	-8	-8	24%	-3%	11%	-1.6%
48	CC1CN(C(=S)NC(=O)c2ccco2)CC(C)O1 (stereo not given)	-2.8	-15	-5	-44%[inhibitor]	8%	?	-1.3%
49	O=C(c1cc(-c2ccc(O)cc2)on1)N1CCCC1	1.3	12	13	?	2%	6%	nt
50	O=C(Cn1cnc2ccccc21)N1CCc2ccccc21	3.0	-10	6	-93%[inhibitor]	-3%	5%	-3.6%

# The list goes on:
cpd	Compound	Menin MLL FP FL	D2 potentiator	TRPV1 potentiator	gsp ag	gsp antagonist	Sfp PPTase inh	ClpP mod
51	O=C(Nc1ccccc1OC(F)F)c1cc2c(s1)CCC2	4.5	-6	-9	-27%	-2%	-4%	-5.4%
52	Cc1ccc(OCC(=O)N(Cc2ccco2)C2CCS(=O)(=O)C2)cc1C (stereo not given)	-0.1	0	-13	6%	5%	3%	-0.8%
53	Cc1ccccc1OCC(=O)OCC(=O)Nc1ccc(N2CCOCC2)cc1	-1.9	-4	-15	3%	2%	-3%	1.1%
54	Cn1cc(CN2CCCC(C(=O)c3nccn3C)C2)c(-c2cccc(Cl)c2)n1 (stereo not given)	-0.7	-13	-4	-35%	1%	10%	nt
55	COC(=O)/C(C#N)=C/c1ccc(N2CCOCC2)c([N+](=O)[O-])c1	5.8	-4	4	-15%	3%	-1%	nt
56	CC(C)CCCN1C(Nc2ccccc2)=NC[C@@H]1CC(C)C	-1.8	-15	-18	-3%	6%	-6%	1.7%
57	O=C(N/N=C/c1ccc(O)cc1)c1ccc(NC(=O)c2ccccc2Br)cc1	-0.3	-5	9	-2%	-9%	21%	-6.3%
58	CCOc1ccc(C(=O)NCC(=O)OC2CCOC2=O)cc1OCC (stereo not given)	2.2	-18	8	10%	-8%	4%	0.2%
59	COc1ccc(-c2nc3ccccc3o2)cc1NC(=O)c1ccc(Br)o1	4.8	13	-12	?	-27%	-19%	22µM*
60	C=CCNC(=O)/C(C#N)=C/c1c(N2CCN(c3cccc(Cl)c3)CC2)nc2c(C)cccn2c1=O	6.0	-9	11	15%[15.4 µM]	-28%	-8%	0.7%

# High-throughput results deposited in PubChem by National Center for Advancing Translational Sciences (NCATS).
